Sa RN4220 lethal = growth inhibition of S. aureus RN4220, primary screen, OD600. inhibition, % (no concentration beside the values). actives 0.33% (n = 330,000). 16 h;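 active = z-score of -3 or lower and OD600 up to 0.18 on both plates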;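 note: plate controls were untreated cells for no effect and reference antibiotic for full effect; stock transfer was 100 nL into about 80 µL; one replicate is shown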
Bead autofluor = flagged as autofluorescent in microsphere protease counterscreen. compound autofluorescence counterscreen, microsphere flow cytometry; active compounds read high. fluorescence intensity (test concentration not listed). actives 3.1% (n = 360,000);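 active = at least 3 SD above the mean of all compounds, about 16000 in these data; inconclusive = too few beads counted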;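 note: 100 nL of 1 mM stock went into each well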
Sa ugtP lethal = growth inhibition of ugtP-null S. aureus, primary screen, RN4220 ugtP deletion, OD600; growth inhibition, % (no concentration beside the values); actives 0.54% (n = 330,000); AID 1259309, 2017; 16 h; some inactives read as strong as hits;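 active = z-score under -3 and OD600 up to 0.15 on both plates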;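 note: plate controls were untreated wells for no effect and antibiotic for full effect; wells of about 80 µL received 100 nL stock; the first replicate is given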
Mtb hypoxia inh = PubChem AID 1159583. M. tuberculosis hypoxia-regulated fluorescent reporter, fluorescence. fluorescence inhibition, % (no concentration beside the values). actives 0.1% (n = 300,000);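 active = 35 to 45% if threefold the growth effect, above 45% if 1.5-fold the growth effect; inactive = the rest, general growth blockers included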;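 note: wells of about 50 µL received 100 nL stock; 0% = vehicle wells and 100% = reference inhibitor wells; whole bacteria with a GFP reporter of the hypoxia response; strong numbers were not always called active; many hits fall short of the cut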
BJeLR viability = MLPCN primary cell-based screen for lethality selective to Ras in HRASV12 cells. BJeLR (HRASV12) viability, CellTiter-Glo ATP luminescence, 48 h; reference of the scale not given here. actives 0.17% (n = 300,000). inhibition, % (concentration not given with the values);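 active = replicate mean above 50%; inconclusive = above 50% but judged a plate artefact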;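 note: 50 nL library stock added to about 25 µL; numbers are from one replicate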
PrP 5UTR inh = inhibition of PrP 5' UTR reporter expression; actives 0.35% (n = 340,000); inhibition, % (no concentration beside the values); cell-based PrP 5' UTR mRNA reporter, plate reader; AID 488862, 2010;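 active = every replicate at 50% or more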;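 note: 0 = median of the neutral control wells; tested in H4 reporter cells; numbers are from one replicate; inactives centre near -14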
Mtb hypoxia inh growth = also measured in Mtb hypoxia inh; calls as there; growth inhibition, %; measured here: M. tuberculosis growth (absorbance);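 0% = vehicle and 100% = reference antibiotic; read after six days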
* marks the source's active call; other numbers are inactive results; ? = inconclusive; / = not tested or not shown; & = joins results of further samples.

SMILES	Sa RN4220 lethal	Bead autofluor	Sa ugtP lethal	Mtb hypoxia inh	Mtb hypoxia inh growth	BJeLR viability	PrP 5UTR inh
Cc1ccc(NS(=O)(=O)c2cccc(C(=O)NNC(=O)c3ccco3)c2)c(C)c1	4.5	4342	14	1	-5	-8	-6
O=C(NCc1ccc(F)cc1)C(=O)NCC1OCCCN1S(=O)(=O)c1cccs1 (centres undefined)	-1.4	?	4	-10	-12	-8	-1
Cc1onc(-c2c(F)cccc2Cl)c1C(=O)Nc1cccc(S(=O)(=O)NCc2ccco2)c1	6.7	4670	14	4	6	-2	-10
CCN(CC)S(=O)(=O)c1cccc(C(=O)N[C@@H](C)c2nc3ccccc3[nH]2)c1	10	/	2	12	9	0	/
COc1cc(Cl)c(C)cc1NC(=O)CSc1ccc(C)cc1	5.3	23633*	10	-2	5	-1	-23
O=C(Nc1ccccc1N1CCOCC1)c1ccc(Cl)c(S(=O)(=O)N2CCCC2)c1	4.1	8876	7	12	9	/	-11
CC(NC(=O)COC(=O)c1cc(S(=O)(=O)N2CCOCC2)ccc1F)c1ccccc1 (centres undefined)	0.2	3510	2	4	2	/	-31
O=C(/C=C/c1ccccc1)c1ccc2c3c(cccc13)CC2	-3.6	1902	58	25	3	-8	-90
CCOC(=O)C(=O)NNc1ccc(C)cc1	6.4	2408	7	-9	-2	5	-5
O=C(NNC(=O)c1ccc(S(=O)(=O)N2CCCCC2)cc1)c1ccc(F)cc1	3.1	3505	4	9	11	-9	1
CC(=O)NCCc1c[nH]c2ccc(OCC(O)CNC(C)(C)C)cc12 (centres undefined)	1.0	4131	7	7	-2	-2	-16
CCc1nnc(NC(=O)CSc2nc(SC)ns2)s1	-0.6	3808	1	-3	14	0	-19
COc1ccc(-c2csc(NCCn3c(C)nc4cc(C(F)(F)F)ccc43)n2)cc1	-13	3916	3	0	2	/	3
Cc1ccccc1C(=O)N1CCC(C(=O)Nc2ccc(S(=O)(=O)N3C(C)CCCC3C)cc2)CC1 (centres undefined)	5.3	3414	0	9	4	/	-19
O=C1OC(/C=C/c2ccc(Cl)cc2Cl)=NC/1=C\c1cccs1	/	6876	/	/	/	-5	-7
CS(=O)(=O)Nc1ccc(C2=NN(S(C)(=O)=O)C(c3ccc4c(c3)OCO4)C2)cc1 (centres undefined)	6.1	4874	1	5	4	-3	-40
CC(C)CCNC(=O)CN(C(=O)CCC(=O)Nc1nccs1)C1CCCCC1	4.7	3556	1	5	5	-6	-11
COc1ccc(NC(=O)c2oc3ccccc3c2NC(=O)c2ccco2)c(OC)c1	2.5	23875*	-13	3	7	5	-14
O=C(Oc1cccnc1)c1ccc(Cl)c(Cl)c1	4.5	4128	-6	-5	6	3	-7
CCN(CC)C(=O)[C@H]1C[C@H](CC(=O)NCc2ccc(OC)c(OC)c2)C(=O)N2CCc3c([nH]c4cc(-c5ccco5)ccc34)[C@]12C	2.6	3837	8	-15	8	/	-1
C(/C=C/c1ccccn1)=C\c1ccccc1	5.9	6153	5	0	15	6	-75
CCN(CC(=O)Nc1ccc(NC(C)=O)cc1)C(=O)CCCN1C(=O)c2ccccc2C1=O	3.7	?	4	-2	-1	3	-18
CC1CCCCN1S(=O)(=O)CCNC(=O)c1ccccc1 (centres undefined)	5.7	/	12	1	0	-2	-25
Cc1ccc(-c2csc(N)n2)s1	-1.9	20327*	-6	1	2	-5	-41
O=C(COC(=O)c1cc(=O)c2ccccc2o1)NC1CCCCC1	2.5	4076	0	1	-6	-3	-21
COc1ccc(N2CCN(C(=S)Nc3ccc(S(N)(=O)=O)cc3)CC2)cc1	-2.4	3423	-17	-4	9	-3	-14
CCCCCCCCN1C(CC(=O)OCC)c2ccc(C(F)(F)F)cc2S1(=O)=O (centres undefined)	6.5	/	2	1	5	/	/
O=C(NNS(=O)(=O)c1ccc(F)cc1)c1cnn(-c2ccccc2)c1C(F)(F)F	1.4	4251	-3	1	-9	1	-7
COC(=O)CC1=C(C(=O)OC)C2(C(=O)N(C)c3ccccc32)C(C#N)=C(N)O1 (centres undefined)	98*	9106	98*	1	6	3	-28
CC(Oc1cccc(F)c1)c1ccnc2nc(N=CN(C)C)nn12 (centres undefined)	7.1	/	14	-4	5	/	/

Structures above with a Cl atom (five):
SMILES	Sa RN4220 lethal	Bead autofluor	Sa ugtP lethal	Mtb hypoxia inh	Mtb hypoxia inh growth	BJeLR viability	PrP 5UTR inh
Cc1onc(-c2c(F)cccc2Cl)c1C(=O)Nc1cccc(S(=O)(=O)NCc2ccco2)c1	6.7	4670	14	4	6	-2	-10
COc1cc(Cl)c(C)cc1NC(=O)CSc1ccc(C)cc1	5.3	23633*	10	-2	5	-1	-23
O=C(Nc1ccccc1N1CCOCC1)c1ccc(Cl)c(S(=O)(=O)N2CCCC2)c1	4.1	8876	7	12	9	/	-11
O=C1OC(/C=C/c2ccc(Cl)cc2Cl)=NC/1=C\c1cccs1	/	6876	/	/	/	-5	-7
O=C(Oc1cccnc1)c1ccc(Cl)c(Cl)c1	4.5	4128	-6	-5	6	3	-7

Later entries.
SMILES	Sa RN4220 lethal	Bead autofluor	Sa ugtP lethal	Mtb hypoxia inh	Mtb hypoxia inh growth	BJeLR viability	PrP 5UTR inh
COc1ccccc1N1CCNC(C)C1=O (centres undefined)	1.2	3254	4	-4	-7	-2	-10
C#Cc1ccc([C@@H]2C=C(C(=O)N3CCN(Cc4ccccc4)CC3)O[C@H](OCC)[C@H]2CCCO)cc1	/	3591	/	/	/	1	-6
CC1=C(C(=O)OC(C)C)C(c2ccc(C)o2)NC(=O)N1 (centres undefined)	1.6	2408	4	8	3	-6	-5
Cc1ccc2[nH]cc(C(=O)CN3CCN(c4ccccn4)CC3)c2c1	3.8	3676	-11	/	/	-7	-16
O=C(Nc1ccccc1Cl)c1cccc(NC(=O)C2CCCC2)c1	3.8	3844	1	3	3	4	-21
COc1ccc2nc(Sc3c([N+](=O)[O-])nc(C)n3Cc3ccccc3)[nH]c2c1	1.3	/	6	9	7	-13	/
COc1ccc(Nc2nc(C)cc(C)c2C#N)cc1OC	3.6	5835	9	8	6	-2	-18
CCOC(=O)C1CCCN(C2=C(NS(=O)(=O)c3ccc(Br)cc3)C(=O)c3ccccc3C2=O)C1 (centres undefined)	39	/	-3	-8	3	-2	-39
NC(=O)CSc1nc2ccccc2c(=O)n1CCc1ccccc1	4.4	4011	3	10	6	-12	-30
COc1ccc(C2C(C#N)=C(C)NC3=C2C(=O)c2ccccc23)cc1 (centres undefined)	9.4	9430	16	4	9	-7	8
COCCN1Cc2cccc(C(=O)N3CCN(c4ccccc4)CC3)c2C1=O	1.4	9216	0	-2	2	-4	-11
COc1ccccc1OCCN(C#N)c1nc(N(C)C)nc(N(C)C)n1	1.6	3673	-2	15	2	-4	-9
O=C(COc1cc2oc(=O)cc(-c3ccccc3)c2cc1Cl)NCCN1CCOCC1	-1.2	4893	3	10	7	-8	-10
COc1ccc(S(=O)(=O)N2CCCC(C(=O)NC3CC3)C2)cc1Cl (centres undefined)	-0.8	4784	0	8	0	-2	-4
COc1ccc(Cl)cc1C(=O)Nn1cnc2ccccc2c1=O	5.8	8870	17	2	-2	-8	-32
COc1ccccc1CNC(=O)COC(=O)c1ccc(-n2cnnn2)cc1	0.6	?	-3	5	2	5	-20
O=c1[nH]c(CCC2CCCC2)nc2ccccc12	2.6	2138	-7	7	-2	-5	-15
CCCn1c2ccccc2c2nnc(SCC(=O)OC)nc21	-1.5	20508*	-6	-1	8	-2	-29
O=C(OCC#CCSc1nnc(-c2ccc([N+](=O)[O-])cc2)o1)c1cccs1	0.0	4023	-1	/	/	4	-7
COc1ccccc1S(=O)(=O)Cc1ccc(C(=O)N2CCN(c3cccc(Cl)c3)CC2)o1	3.5	9609	1	-6	5	1	-21
NC(=O)COC(=O)c1cccc(S(=O)(=O)N2CCN(c3ccccc3)CC2)c1	1.4	3182	3	9	-8	-10	-12
Cc1cc(C(=O)Nc2ccc3c(c2)OCO3)cs1	3.5	10759	-1	6	5	0	-51
CSCCC(NC(=O)c1ccccc1)C(=O)NC1CCCC1 (centres undefined)	9.5	10885	-2	16	3	4	-13
ClC(Cl)(Cl)c1nc(N/N=C/c2ccncc2)c2ccccc2n1	/	4617	/	/	/	2	-6
NC(=O)CC(NC(=O)Cc1ccc(Cl)cc1)c1ccc(NC2CCCCCC2)c([N+](=O)[O-])c1 (centres undefined)	2.5	3170	-8	4	12	-8	-27
O=C(Nc1ccccc1Cl)c1ccccc1	6.0	3096	7	15	12	7	-36
COc1ccc(OC)c(C=NNC(=O)Cn2ccnc2C)c1	3.2	/	11	-2	3	/	/
Cc1cc(C)nc(N/N=C2/CCSc3ccc(F)cc32)n1	/	5349	/	/	/	-8	4
Cc1ccc(OC(C)C(=O)Nc2ccc3c(c2)n(C)c(=O)n3C)cc1C (centres undefined)	6.5	/	5	2	1	-3	-10
COc1ccc(N2CCN(C(CNC(=O)C(=O)NCC3CCCO3)c3ccco3)CC2)cc1 (centres undefined)	3.7	8914	11	5	0	-28	-60

Copied from the list.
Result of COc1ccccc1CNC(=O)COC(=O)c1ccc(-n2cnnn2)cc1 in BJeLR viability: 5
Result of O=C(NNS(=O)(=O)c1ccc(F)cc1)c1cnn(-c2ccccc2)c1C(F)(F)F in PrP 5UTR inh: -7

Additional results.
SMILES	Sa RN4220 lethal	Bead autofluor	Sa ugtP lethal	Mtb hypoxia inh	Mtb hypoxia inh growth	BJeLR viability	PrP 5UTR inh
O=C1CCCC2=C1CC(C(=O)OCc1ccccc1)C(=O)N2Cc1ccccc1 (centres undefined)	1.5	3372	20	0	-8	/	-2
Cc1ccc(Cl)cc1NC(=O)N[C@@H](CC(C)C)C(=O)O	5.0	/	-3	11	8	-8	-13
CN(Cc1ccccc1F)c1nc(-c2cccnc2)nc2ccccc12	-2.8	4361	-10	-5	17	1	-16
O=C1CN(C(=O)c2cccc(F)c2)C(c2ccc(F)cc2)c2cc(F)ccc2N1 (centres undefined)	4.3	3522	3	10	-3	-4	-25
Cn1c[n+](C)cc1C(O)c1ccccc1 (centres undefined)	-1.4&-2.2	2702&4153	4&9	1	-5	3&-4	-7&-17
COc1ccc(NC(=O)C2=C(C)C(=O)OC23CCC(C)CC3)c(OC)c1 (centres undefined)	8.7	4797	12	-3	7	0	-4
CCOC(=O)c1cnc2c(-c3ccc(Cl)cc3)cnn2c1C	4.3	2502	-4	5	-13	-1	-74
CC(=O)N1N=C(c2ccc(Cl)cc2)CC1c1ccc([N+](=O)[O-])cc1 (centres undefined)	-1.1	2964	6	-3	4	0	-10
CCC(C)(C)NC(=O)CN(Cc1ccco1)C(=O)CCC(=O)Nc1nccs1	2.0	5535	12	-1	5	-3	-8
C=CCN1C(=S)CC(c2ccccc2)=Nc2ccccc21	-0.4	3933	10	3	4	4	3
CC(C)C[C@@]12C(=O)N(c3cccc(F)c3)C(=O)N1C(c1ccc(F)cc1)C1C(=O)N(C3CCCCC3)C(=O)C12 (some centres undefined)	-2.7	/	-12	7	9	/	/
CCCC(=O)NC(Oc1ccc(OC)cc1)C(Cl)(Cl)Cl (centres undefined)	13	2029	2	-3	-1	7	-17
CC(NC(=O)C1c2ccccc2Oc2ccccc21)C1CCCO1 (centres undefined)	-4.3	4215	-5	2	-1	14	3
CCOc1ccccc1NC(=O)C(Sc1nnnn1C)c1ccccc1 (centres undefined)	-2.0	4534	-2	-1	3	-7	-24
CN1CCN(C(=O)c2cc(Oc3c(F)c(F)c(F)c(F)c3F)cc(C(=O)N3CCN(C)CC3)c2)CC1	5.6	2304	4	2	-4	7	-41
Cc1c(O)c2c(=O)n(-c3ccccc3)c(-c3ccccc3)cc2oc1=O	15	10954	13	2	3	-2	-21
O=C(CSc1ccccc1)Nc1cc(S(=O)(=O)N2CCOCC2)ccc1N1CCOCC1	4.2	4627	3	10	9	-1	-26
CCOC(=O)C1=C(COc2ccccc2)NC(=O)NC1c1cccc([N+](=O)[O-])c1 (centres undefined)	4.5	4454	-4	7	1	-5	-6
CCOC(=O)Oc1ccc2oc(C)c(C(=O)OCCOC)c2c1	1.8	4194	9	5	2	-4	-22
Cc1ccc(Nc2nc(-c3c(C)n(C)n(-c4ccccc4)c3=O)c(C)s2)cc1	0.1	3047	14	-1	-6	0	0
CCOC(=O)/C(C#N)=C1/CCCCCN1C	2.4	2452	-4	/	/	2	-18
CC(=NNC(=O)c1ccccc1Cl)c1ccccn1	10	/	3	9	11	/	/

Random draw from the library; 4% or so of the library scored in one or more.
